Screening results (PubChem BioAssay)
USP2a inh: inhibitors of human ubiquitin-specific protease USP2a | USP2a enzymatic assay, qHTS inhibition | AID 927 | hit rate 0.1% among 60,000 | Potency, µM (series often up to 38.3 µM), for the others: top-dose activity change, negative = inhibition, hits mostly inhibitors;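 also: potency is read from the fitted curve at half-maximal effect; nearly all actives have a fitted effect of over 60% in size; plate controls were DMSO for no effect and NEM full inhibition control for full effect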
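USP2 core (20nM final) preincubated 30 min RT with compound, then Ub-PLA2 20nM and NBD C6-HPC 20uM final added; buffer 20mM Tris-HCl pH 8.0, 2mM CaCl2. Fluorescence Ex 460/Em 535 read at 0 and 2.5 h; normalized to NEM.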
UbGFP stabilizer: ubiquitin-GFP accumulation via proteasome inhibition; 67,000 tested, under 10 active; Potency, µM (series often up to 45.9 µM), for inactives: at the top dose activation (GFP accumulation), hits mostly activators; AID 526; Ubiquitin-GFP reporter cells, proteasome inhibition, GFP fluorescence; response scale: untreated = 0%, 10 µM MG-132 = 100%; active = well fitted activation curve with a large enough effect, not every such curve was filed as active; inconclusive = small, poorly fitted or top-dose-only effect, or another doubt; inactive = no such curve, though single readings can be large or run the other way; also: potency is read from the fitted curve at half-maximal effect
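U2OS cells stably expressing ubiquitin(G76V)-GFP, seeded overnight in 0.5% FBS medium, were exposed to compounds (qHTS, 46 uM to 2.9 nM) for 4 hr at 37 °C. GFP-positive cells were counted by laser cytometry (488 ex/515 em), normalized between basal and 10 uM MG-132.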
BRCT inh green: inhibitors of human BRCA1 BRCT-phosphoprotein interaction (green fluorophore). P38398. Potency, µM (top dose mostly 76.9 µM), without a hit: at the top dose activity change, negative = inhibition, hits mostly inhibitors. BRCA1 BRCT-phosphopeptide binding, green fluorescence polarization. hit rate 0.05% among 75,000;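 also: potency is read from the fitted curve at half-maximal effect; plate controls were peptide without protein for full effect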
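Fluorescence polarization: His-tagged BRCT (~35 kDa BRCA1 C-terminus, 250 nM) bound to 100 nM fluorescein-labeled phosphorylated 10-aa BACH1 peptide, pH 7.3 phosphate buffer with DTT and Tween 20. Compounds incubated 12 min at room temperature; inhibition read as lowered polarization.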
Epigenetic mod: derepresses silenced GFP locus in mouse C127i cells. AID 597. mouse C127i GFP locus derepression, cytometry, 30 h. Potency, µM (highest dose often 46.1 µM), for inactives: at the top dose GFP derepression (activation). hit rate 0.09% among 68,000; also: % of control where 0% means no effect
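Locus derepression in mouse mammary C127i cells whose integrated CMV-GFP reporter is normally silent; GFP expression after 30 h compound treatment was quantified by counting fluorescent cells.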
DNA Pol III inh: DNA polymerase III holoenzyme inhibition; reconstituted DNA polymerase III holoenzyme replication, biochemical; Potency, µM (highest dose often 57.1 µM), without a hit: at the highest dose activity change, negative = inhibition; hit rate 0.25% among 71,000; also: potency is read from the fitted curve at half-maximal effect; % is scaled to controls: 0 for no effect and ±100 for the full control effect
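Reconstituted *E. coli* holoenzyme (0.35 nM Pol III, 1 nM beta, 154 nM SSB, 2 nM primase) was preincubated with compound for 15 min at RT. Synthesis on 1.4 nM ssM13Gori ran 35 min, then was stopped with PicoGreen/EDTA and read as dsDNA fluorescence.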
HBB splice mod: hemoglobin beta splicing modulation. HBB splicing reporter cell assay, activation; EGFP reporter with mutant IVS2-654 intron; response scale: normalised to 500 nM splice-correcting PNA. Potency, µM (highest dose often 46.1 µM), for inactives: at the highest dose activation, hits mostly activators. hit rate 0.06% among 65,000. AID 925; also: potency is read from the fitted curve at half-maximal effect; 0% is about no effect
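Compounds were applied for 2 days to HeLa EGFP-654 cells, 500/well in Optimem with 2% FCS. The reporter's EGFP is disrupted by mis-splicing of beta-globin intron IVS2-654. Readout: summed well GFP fluorescence from 488 nm laser scanning; reference was 500 nM antisense […] 654 PNA.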
CRE Fsk mod: modulators of forskolin-stimulated CRE signaling in CHO cells; CHO CRE-bla reporter (cAMP response element driving beta-lactamase), forskolin EC10, beta-lactamase ratio; Potency, µM (titrated, usually from 38.2 µM), for inactives: at the highest dose activity change, negative = inhibition, usual class: activators; hit rate 2.5% among 71,000; AID 662; active = well fitted activation curve with a large enough effect in the signal ratio, with a control signal flat, not every such curve was filed as active; inconclusive = small, poorly fitted or top-dose-only effect, or effect the other way, or a change in a side signal; the % refers to the signal ratio; also: potency is read from the fitted curve at half-maximal effect; % of control where 0% means no effect
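qHTS titration format; CRE-bla CHO reporter; stimulus EC10 NKH 477, a water-soluble forskolin. Read: CCF4 460/530 nm ratio. Potency expressed as AC50 for activators or inhibitors.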
BRCT PPI red: disrupts BRCA1 BRCT binding to phosphoprotein, red fluorophore readout | BRCT-phosphopeptide binding, red fluorescence polarization | AID 892 | hit rate 0.03% among 75,000 | Potency, µM (highest dose often 76.9 µM), for inactives: at the top dose activity change, negative = inhibition, actives largely listed as inhibitors; also: % is scaled to controls: 0 for no effect and ±100 for the full control effect
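Rhodamine-labelled pBACH1 10-mer (100 nM) bound to BRCT domain (100 nM) at pH 7.3; compounds incubated 12 min room temperature, polarization read. Free peptide defines full inhibition; unlabelled decapeptide titrated as control.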
15-hLO inh: 15-hLO (ALOX15) enzyme inhibition; AID 887; Potency, µM (top dose mostly 57.1 µM), for inactives: top-dose activity change, negative = inhibition, most hits filed as inhibitors; hit rate 1.4% among 74,000; purified 15hLO-1, xylenol orange hydroperoxide absorbance; also: potency is read from the fitted curve at half-maximal effect; % is scaled to controls: 0 for no effect and ±100 for the full control effect; nearly all actives have a fitted effect of over 55% in size
Target sequence (P16050 whole entry, looked up): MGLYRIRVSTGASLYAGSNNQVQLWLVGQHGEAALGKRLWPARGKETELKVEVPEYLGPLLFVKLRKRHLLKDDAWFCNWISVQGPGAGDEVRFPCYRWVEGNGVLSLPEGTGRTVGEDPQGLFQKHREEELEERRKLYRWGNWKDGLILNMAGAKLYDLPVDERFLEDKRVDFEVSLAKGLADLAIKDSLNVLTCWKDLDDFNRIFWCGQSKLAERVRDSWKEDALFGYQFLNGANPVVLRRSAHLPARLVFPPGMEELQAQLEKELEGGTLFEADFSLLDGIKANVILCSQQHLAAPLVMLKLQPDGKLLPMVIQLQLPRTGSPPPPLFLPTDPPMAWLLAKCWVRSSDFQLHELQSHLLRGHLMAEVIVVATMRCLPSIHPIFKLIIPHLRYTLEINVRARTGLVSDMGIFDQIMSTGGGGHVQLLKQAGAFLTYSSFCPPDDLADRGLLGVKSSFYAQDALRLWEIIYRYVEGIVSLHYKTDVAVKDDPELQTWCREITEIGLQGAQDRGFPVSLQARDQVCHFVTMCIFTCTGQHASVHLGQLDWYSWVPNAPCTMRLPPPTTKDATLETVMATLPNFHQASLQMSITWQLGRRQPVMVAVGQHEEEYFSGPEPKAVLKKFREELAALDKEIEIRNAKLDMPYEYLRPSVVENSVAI
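Quantitative HTS in 25 mM Hepes pH 7.5 containing 0.01% Triton X-100: human 15hLO-1 at 40 nM, arachidonic acid at 50 uM, 6 min turnover. Product quantified via ferrous oxidation/xylenol orange, 573:405 nm absorbance ratio.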
Hsp90 Hop PPI: changes Hsp90-Hop TPR2A binding signal, up or down. Potency, µM (titrated, usually from 57 µM), without a hit: at the highest dose activity change, negative = inhibition. hit rate 0.44% among 71,000. AID 595. AlphaScreen TPR2A-His6 binding biotin-Hsp90 C-terminal peptide; active = well fitted curve in either direction with a large enough effect; inconclusive = small, poorly fitted or top-dose-only effect, or another doubt; also: potency is read from the fitted curve at half-maximal effect; % is scaled to controls: 0 for no effect and ±100 for the full control effect; many of its hits are not listed in these tables
Active calls of the source: *; ? = inconclusive; · = not tested or not shown; [ ] = another dose, or the depositor's remark. Unless noted, calls follow the shape of the dose curve; as a rule, active = well fitted curve in the direction sought with a large enough effect; inconclusive = small, poorly fitted or top-dose-only effect, or another doubt; inactive = no such curve, though single readings can be large; an effect the other way counts as inactive or inconclusive. Only part of the results is shown, so the mix of outcomes need not match the whole.

| No. | smiles | BRCT inh green | USP2a inh | UbGFP stabilizer | Hsp90 Hop PPI | Epigenetic mod | 15-hLO inh | DNA Pol III inh | BRCT PPI red | HBB splice mod | CRE Fsk mod |
| --- | --- | --- | --- | --- | --- | --- | --- | --- | --- | --- | --- |
| 1 | CC(=O)Nc1nc(=S)n(-c2ccccc2)[nH]1 | -2.2% | 0%[7.66 µM] | -18%[9.17 µM] | -5%[11 µM] | -2% | ? | -2%[11.4 µM] | 1.0% | -0.2%[0.0738 µM] | ? |
| 2 | COc1ccc(NC(=O)CSc2nc3c(c(=O)n2-c2ccc(C)cc2)SCC3)c(OC)c1 | -0.4% | 48%[activator] | 5% | -5% | 2% | -10% | 0% | 0.3% | 0.8% | 7% |
| 3 | COc1ccc(NC(=O)c2ccc(S(=O)(=O)N3CCOCC3)cc2)c(OC)c1 | 0.5% | 9% | -3% | -3% | -5% | 12% | -4% | 0.5% | · | ? |
| 4 | CC(C)OC(=O)CCCN1C(=O)c2ccc(N)cc2C1=O | -6.4% | 2% | 4% | 6% | 2% | ? | 7% | -1.4% | 7.5%[1.84 µM] | -25% |
| 5 | COCCNC(=O)NC1(C(F)(F)F)Oc2ccc(Cl)cc2O1 (stereo unspecified) | 0.9% | 6% | 7% | -2% | -3% | -23% | 6% | -0.1% | 0.0% | ? |
| 6 | CCN(CC)S(=O)(=O)c1ccc2[nH]cc(C(=O)NCCc3ccc(OC)c(OC)c3)c(=O)c2c1 | -1.9% | 20% | 5% | -3% | 0% | 0% | -1% | 0.8% | -0.9% | ? |
| 7 | COC(=O)Cn1c(=NC(=O)CSCC(=O)Nc2cc(C)on2)sc2ccccc21 | -3.1% | · | -6% | 3% | · | -9% | -6% | -1.2% | -1.0% | ? |
| 8 | COCc1nnc(NC(=O)c2cc(Cl)ccc2OC)s1 | 0.4% | -2% | 4% | -2% | ? | -24% | -2% | -1.0% | 0.5% | ? |
| 9 | COc1cccc(-c2nn(C)c3sc(C(=O)Nc4ccc5c(c4)OCCO5)cc23)c1 | -0.9% | -8% | -8% | -9% | 1% | -10% | 3% | 0.7% | -0.6% | 1.3µM* |
| 10 | CCOC(=O)CC(=O)CSc1ncnc2c1oc1ccccc12 | 0.6% | 28% | 0% | -5% | 2% | -6% | -8% | 0.7% | 2.4%[0.369 µM] | ? |
| 11 | COc1ccc(OCc2nn3c(Cn4cnc5ccccc54)nnc3s2)cc1 | -0.4% | 46%[activator] | 2% | -6% | -2% | -1% | -3% | -0.6% | -1.0%[57.5 µM] | 23% |
| 12 | Cc1csc(NC(=O)CSc2nnc(Cc3cccn3C)n2CCc2ccccc2)n1 | -5.7% | · | 1% | -26% | · | 13µM* | -8% | -1.7% | -0.2% | 12% |
| 13 | CCOC(=O)Cn1c(CN2CC(C)OC(C)C2)nc2c1c(=O)n(C)c(=O)n2C (stereo unspecified) | -1.6% | · | 13% | -10% | · | 7.9µM* | -14% | -4.4% | -1.0% | 26% |
| 14 | COc1ccc(-n2ncc3c(NC(C)C)ncnc32)cc1 | 0.7% | · | · | · | · | -1% | · | -0.7% | · | · |
| 15 | COc1ccc2nc(NC(=O)C3CCN(S(=O)(=O)c4cnc[nH]4)CC3)sc2c1 | -0.2% | 0% | -9% | -4% | -1% | -2% | -7% | -0.3% | 1.1% | 11% |

Brought forward from above: five entries, followed by the next part.
| No. | smiles | BRCT inh green | USP2a inh | UbGFP stabilizer | Hsp90 Hop PPI | Epigenetic mod | 15-hLO inh | DNA Pol III inh | BRCT PPI red | HBB splice mod | CRE Fsk mod |
| --- | --- | --- | --- | --- | --- | --- | --- | --- | --- | --- | --- |
| 11 | COc1ccc(OCc2nn3c(Cn4cnc5ccccc54)nnc3s2)cc1 | -0.4% | 46%[activator] | 2% | -6% | -2% | -1% | -3% | -0.6% | -1.0%[57.5 µM] | 23% |
| 12 | Cc1csc(NC(=O)CSc2nnc(Cc3cccn3C)n2CCc2ccccc2)n1 | -5.7% | · | 1% | -26% | · | 13µM* | -8% | -1.7% | -0.2% | 12% |
| 13 | CCOC(=O)Cn1c(CN2CC(C)OC(C)C2)nc2c1c(=O)n(C)c(=O)n2C (stereo unspecified) | -1.6% | · | 13% | -10% | · | 7.9µM* | -14% | -4.4% | -1.0% | 26% |
| 14 | COc1ccc(-n2ncc3c(NC(C)C)ncnc32)cc1 | 0.7% | · | · | · | · | -1% | · | -0.7% | · | · |
| 15 | COc1ccc2nc(NC(=O)C3CCN(S(=O)(=O)c4cnc[nH]4)CC3)sc2c1 | -0.2% | 0% | -9% | -4% | -1% | -2% | -7% | -0.3% | 1.1% | 11% |
| 16 | O=C(c1ccc(Br)cc1)C1CCc2occc2C1=O (stereo unspecified) | 1.2% | 29% | 22% | -1% | -2% | -16% | -4% | -0.2% | 0.6%[1.84 µM] | -6% |
| 17 | COc1ccc(OCCSc2nnc3sc4ccccc4n23)cc1 | 1.2% | -7% | -5% | -1% | 2% | -24% | 2% | -2.4% | -0.6% | 0.5µM* |
| 18 | Cc1c(C(=O)O)[nH]c2c1C(=O)CC(c1ccccc1)C2 (stereo unspecified) | -1.2% | -4% | 2% | -2% | 0% | ? | -3% | -1.0% | -1.6% | ? |
| 19 | CCC(CC)c1nnc(NS(=O)(=O)Cc2ccccc2)s1 | 4.6% | -1% | -6% | -2% | 0% | -5% | -3% | -0.9% | -0.3% | 5% |
| 20 | Cc1cc(C)nc(SCNC(=O)c2ccc(F)cc2)n1 | -1.0% | 6% | · | 1% | -4% | -18% | 3% | -0.9% | -1.6%[0.369 µM] | ? |
| 21 | On1c(-c2ccco2)nc2c1CCc1nonc1-2 | -0.5% | -2% | -3% | -4% | 2% | -9% | -4% | -0.4% | 3.6% | 4% |
| 22 | O=C(Nc1ccccc1)c1cccnc1Nc1ccccc1 | -0.7% | 2% | -6% | -5% | 8% | -9% | -4% | -0.1% | 1.7% | -11% |
| 23 | Cn1c(SCC(=O)NCc2ccc3c(c2)OCO3)nc2scc(-c3cccs3)c2c1=O | 2.9% | 55%[activator] | -1% | -4% | 2% | -10% | -4% | 0.3% | -1.4% | 2% |
| 24 | Fc1ccc(-c2nn3c(C4COc5ccccc5O4)nnc3s2)cc1 (stereo unspecified) | 4.2% | 38%[activator] | 3% | 1% | 0% | -29% | -4% | -0.9% | 5.4%[57.5 µM] | -7% |
| 25 | Cc1ccc(Cl)cc1-n1c(=O)cc(N2CC(C)OC(C)C2)[nH]c1=O (stereo unspecified) | -1.6% | -1% | -11% | -3% | 0% | 20% | 2% | 1.9% | 0.8% | ? |
| 26 | CCOc1[nH]c(/N=C/c2ccco2)c(C#N)c1C#N | -7.6% | 13% | 0% | -4% | 3% | 25µM* | -3% | -10% | 7.4%[0.369 µM] | 0% |
| 27 | Cc1cc(NC(=O)c2ccc(S(=O)(=O)N3CCOCC3)cc2)nc2c1c(=O)oc1ccccc12 | 1.8% | 26% | -4% | -5% | 2% | 13% | -2% | 0.0% | -1.0% | ? |
| 28 | Clc1ccc(C2=Nn3c(nnc3-c3n[nH]c4c3CCC4)SC2)cc1Cl | -1.4% | ? | 10% | -10% | 0% | -1% | 4% | -0.2% | -0.6%[1.84 µM] | 1µM* |
| 29 | O=C(CSc1nc2ccc(S(=O)(=O)N3CCOCC3)cc2[nH]1)N1CCOCC1 | -3.0% | -5% | -3% | 2% | 6% | 7.9µM* | -3% | 0.2% | 0.0%[57.5 µM] | 0% |
| 30 | Nc1nc(C2CC2)c(Sc2sc(N)nc2C2CC2)s1 | -6.5% | ? | 2% | -17% | -1% | ? | 2% | -2.3% | -3.5% | 3% |
| 31 | Cc1cc(NC(=O)c2ccccc2)sc1C | -1.3% | 7% | -5% | -8% | -2% | ? | -14% | -0.6% | -1.1%[9.22 µM] | -12% |
| 32 | CCn1c(N)c(C(=O)NCc2ccco2)sc1=S | 0.2% | 4% | 0% | -7% | 4% | -23% | 0% | 0.1% | -2.2% | ? |
| 33 | Cc1cc(NC(=O)c2noc3c2CCCCC3)no1 | -0.1% | -2% | 13% | -3% | -3% | 2% | -1% | -1.7% | 0.5% | 3% |
| 34 | COc1cccc(NS(=O)(=O)c2cc(C)ccc2OC)c1 | -0.9% | -3% | 13% | -1% | 2% | 2% | 6% | -1.0% | -0.1% | -4% |
| 35 | CCN(CC)C(=O)c1sc2nc(-c3ccc(OC)cc3)cn2c1C | 0.2% | 8% | 4% | -1% | 2% | -4% | -1% | -0.3% | -0.6% | 11% |
| 36 | CCOc1ccccc1C1C(C#N)=C(N)Oc2n[nH]c(CC)c21 (stereo unspecified) | 0.5% | 9% | 14% | -4% | 3% | -8% | -2% | 0.5% | -0.6% | 7% |
